RE007 growth inh – less growth of the S. pombe RE007 Vpr strain. S. pombe RE007 Vpr strain, BacTiter-Glo ATP luminescence, 24 h; control for the full effect not named in the record. Potency, µM (titrated, usually from 92.2 µM), for inactives: at the highest dose activity change, negative = less growth. 0.21% of 360,000 active; active = well fitted falling curve with a large enough effect; inconclusive = small, poorly fitted or top-dose-only effect; inactive = no such curve, though single readings can be large or run the other way;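 further: on the % scale 0 is the no-effect control and ±100 the full control effect; nearly all actives have a fitted effect of over 50% in size; the assay follows cell death caused by Vpr and the record does not say whether a fall means rescue or toxicity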
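Fission yeast strain RE007, carrying one chromosomally integrated HIV-1 vpr copy, was seeded at OD 0.01 in PMG+AL medium with 23 nL pinned compound. After 24 h at 30 °C and 99% humidity, viability was read by BacTiter-Glo luminescence.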
NS1 inh – influenza NS1 inhibition; Potency, µM (highest dose often 46.1 µM), for inactives: top-dose activity, positive = more growth; S. cerevisiae slowed by influenza A NS1, growth recovery by OD600; 0.4% of 270,000 active; further: actives are rising curves; nearly all actives have a fitted effect of over 50% in size
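S. cerevisiae expressing influenza A NS1, grown in glucose, washed, then diluted 1:100 into pH 6.0 -URA galactose medium with 23 nl compound. Growth recovery read as OD600; NS1-free strain serves as control.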
StopGo reporter – FMDV 2A StopGo reporter, luciferase signal; AID 1159524; Potency, µM (series often up to 57.9 µM), for the others: at the top dose signal change, negative = less light; human cells with a luciferase reporter of 2A StopGo recoding; control for the full effect not named in the record; 1.2% of 410,000 active; active = well fitted falling curve with a large enough effect; inconclusive = small, poorly fitted or top-dose-only effect; inactive = no such curve, though single readings can be large or run the other way; tested in HEK293T cells; further: on the % scale 0 is the no-effect control and ±100 the full control effect; nearly all actives have a fitted effect of over 45% in size; luciferase light after 4 h
Cruzain inh Det – blocks cruzain activity in presence of Triton detergent; Potency, µM, without a hit: max response, negative = inhibition, hits mostly inhibitors; 0.43% of 200,000 active; purified cruzain, Z-FR-AMC fluorescence, 0.01% Triton; AID 1478; active means well fitted curve in the direction sought with a large enough effect; inconclusive means small, poorly fitted or top-dose-only effect, or another doubt; inactive means no such curve, though single readings can be large; an effect the other way counts as inactive or inconclusive;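 further: plate controls were neutral wells for no effect and buffer without enzyme for full effect; nearly all actives have a fitted effect of over 40% in size; top concentration of the series not given in the record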
Target sequence (P25779 123-467 limits assumed): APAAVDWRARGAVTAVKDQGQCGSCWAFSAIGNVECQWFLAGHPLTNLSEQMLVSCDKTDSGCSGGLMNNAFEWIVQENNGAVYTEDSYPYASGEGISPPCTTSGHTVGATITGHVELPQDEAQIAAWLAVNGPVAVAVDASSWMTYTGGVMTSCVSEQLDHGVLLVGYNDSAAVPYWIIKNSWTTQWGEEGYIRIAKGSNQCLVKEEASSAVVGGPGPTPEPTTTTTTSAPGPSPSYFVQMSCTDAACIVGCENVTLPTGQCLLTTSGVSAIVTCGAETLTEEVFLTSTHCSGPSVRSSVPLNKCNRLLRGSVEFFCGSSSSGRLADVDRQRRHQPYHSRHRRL
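Steps: dispense cruzain (1.5 nM final) in acetate buffer pH 5.5 with DTT and 0.01% Triton X-100; pin-transfer compounds; incubate 15 min RT; add Z-FR-AMC (2 uM final); read fluorescence every 30 s, using the 60 s intensity change.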
LASV entry inh – blocks Lassa virus binding to or entry into cells; Lassa virus pseudotype entry inhibition, cell reporter; control for the full effect not named in the record; Potency, µM (doses to about 37.9 µM), without a hit: at the top dose activity change, negative = inhibition, usual class: inhibitors; 1.2% of 300,000 active; AID 540256; active means well fitted inhibition curve with a large enough effect; inconclusive means small, poorly fitted or top-dose-only effect, or effect the other way; inactive means flat fitted curve, though single readings scatter; tested in HEK293 cells; further: on the % scale 0 is the no-effect control and ±100 the full control effect; nearly all actives have a fitted effect of over 50% in size; luciferase read-out
Cruzain inh noDet – blocks cruzain activity in detergent-free assay; purified cruzain, Z-FR-AMC fluorescence, no detergent; Potency, µM, for the others: max response, negative = inhibition, usual class: inhibitors; 2.3% of 200,000 active; AID 1476; active means well fitted curve in the direction sought with a large enough effect; inconclusive means small, poorly fitted or top-dose-only effect, or another doubt; inactive means no such curve, though single readings can be large; an effect the other way counts as inactive or inconclusive;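 further: plate controls were enzyme without inhibitor for no effect and buffer without enzyme for full effect; nearly all actives have a fitted effect of over 40% in size; top concentration of the series not given in the record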
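Detergent-free condition (0.00005% Triton X-100) in acetate buffer pH 5.5 with DTT. 1.5 nM enzyme and compound were pre-mixed 15 min, then 2 uM Z-FR-AMC substrate added; reaction progress from fluorescence change between first and third reads (60 s).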
SARS PLP yeast – blocks SARS-CoV papain-like protease in a yeast assay | 0.19% of 330,000 active | S. cerevisiae expressing SARS-CoV PLpro, growth rescue; control for the full effect not named in the record | AID 485353 | Potency, µM (top dose mostly 32.9 µM), for the others: at the highest dose activity, positive = growth rescue; further: 0% is about no effect; nearly all actives have a fitted effect of over 55% in size; growth read by luminescence after 48 h
Marburg entry inh – Marburg virus entry inhibition. Marburg virus pseudotyped entry inhibition, cell reporter; control for the full effect not named in the record; about a third of the inactives were read at about 46 µM. Potency, µM (series often up to 37.8 µM), inactives show at the top dose activity change, negative = inhibition, hits mostly inhibitors. 1.8% of 300,000 active. AID 540276; active = well fitted inhibition curve with a large enough effect; inconclusive = small, poorly fitted or top-dose-only effect, or effect the other way; inactive = flat fitted curve, though single readings scatter; tested in HEK293 cells; about a fifth of its hits are not listed in these tables; further: on the % scale 0 is the no-effect control and ±100 the full control effect; luciferase read-out
Starred values were filed as active, the others as inactive; ? = inconclusive; · = not tested or not shown; & = joins results of further samples; [ ] = remark or other dose. Unless noted, the call rests on the fitted dose curve; in most records, active means well fitted rising curve with a large enough effect; inconclusive means small, poorly fitted or top-dose-only effect; inactive means no such curve, though single readings can be large or run the other way. Potency means the concentration at half of the fitted maximal effect.

Molecule	RE007 growth inh	NS1 inh	Cruzain inh noDet	SARS PLP yeast	Marburg entry inh	LASV entry inh	Cruzain inh Det	StopGo reporter
Oc1cccc(C(O)CNCc2ccc(-c3ccccc3)cc2)c1 (stereo not drawn)	-17%	·	·	-1%	?	?	·	-6%
COc1cccc(NC(=S)N(Cc2ccc(C)cc2)Cc2ccccn2)c1	-8%	-3%	·	-1%	-25%[46.1 µM]	-27%	·	?
CC(=N\Nc1ccccc1)/C(=N/O)C(=O)Nc1ccccc1	-4%	-2%	-1%	-4%	8%	5%	-4.0%	-12%
CC1(C)CC(=O)c2cc(OCC(=O)N3CCCCCC3)ccc2O1	-6%	-4%	-6%	10%	?	-9%	-1.9%	71%[activator]
Cc1cc(C)n2nc(C(=O)N3CCN(Cc4ccc5c(c4)OCO5)CC3)nc2n1	7%	·	·	-1%	1%[46.1 µM]	-16%[46.1 µM]	·	-3%
COc1ccc(-c2cc(C)no2)cc1S(=O)(=O)NCCc1ccco1	-8%	-5%	·	0%	?	-22%[46.1 µM]	·	51%[activator]
c1ccc2c(-c3ccncc3)c[nH]c2c1	-26%	-87%	-4%	-8%	-30%	-5%	-8.7%	-10%
Cc1ccc(-c2cnco2)cc1	3%	-1%	·	1%	·	·	·	-4%
CCc1ccccc1NC(=O)NC1CCCCCCC1	11%	14%	·	4%	-20%[46.1 µM]	-9%[46.1 µM]	·	11%
CCOC(=O)c1c(NC(=O)CCS(=O)(=O)c2ccccc2)sc2c1CCN(C(C)C)C2	9%	-6%	·	1%	11%	15%	·	-13%
COc1ccccc1N1CCN(C(=O)c2cc3ccc4ccc(C)[nH]c4c3n2)CC1	·	·	5%	·	·	-17%[46.1 µM]	-9.4%	-13%
Cc1ccc(CNC(=O)C2CCCN2C(=O)Nc2ccc(F)cc2)cc1 (stereo not drawn)	10%	24%	·	11%	·	·	·	20%
COc1cccc(-n2c(SCc3c(C)noc3C)nnc2-c2cccc(S(=O)(=O)N(C)C)c2)c1	0%	0%	?	-3%	-2%	3%	0.6%	-2%
COc1cccc(CNc2nc(SC)ncc2CO)c1	21%	-1%	-1%	-4%	-9%	-18%	-0.2%	-5%
Cc1ccc(C(=O)OCC(=O)N2CC(C)CC(C)C2)cc1S(=O)(=O)N1CCOCC1 (stereo not drawn)	-12%	8%	·	2%	?	?	·	0%
C#CCOc1ccc(Cl)cc1/C=N/O	18%	-8%	-3%	-1%	-1%	1%	-0.6%	·
Cc1[nH]n(-c2ccccc2)c(=O)c1/C=N/N(C)c1ccccc1	9%	-20%	-3%	0%	-2%	7%	-7.2%	-1%
CCN(C(=O)Nc1cn(CC(C)C)c(=O)c2ccccc12)c1cc(C)ccc1C	·	·	-10%	·	·	-1%[46.1 µM]	-2.8%	-6%
CC(C)/C=N/NC(=O)c1ccc(Cl)cc1	-16%	-4%	17%	-10%	3%	5%	1.5%	1%
O=C(NCCN1C(=O)C2C3C=CC(C3)C2C1=O)Nc1cccnc1 (stereo not drawn)	5%	8%	-13%	-2%	·	·	5.2%	-21%
Oc1ccccc1/C=N/[n+]1ccccc1	-9%	3%	·	1%	-4%	0%	·	?
COc1ccc(-n2c(Cc3cccn3C)nnc2SCC(=O)Nc2cccc(Cl)c2)cc1	2%	?	-21%	-3%	·	·	-10%	4%
CCCC(NCC(=O)Nc1ccccc1C(=O)NC1CC1)c1ccccc1 (stereo not drawn)	-3%	·	·	1%	-8%	0%[46.1 µM]	·	-20%
CC(=O)Nc1ccc(C)cc1-c1nc2ccccc2n(Cc2cccc(Br)c2)c1=O	·	·	-11%	·	1%[46.1 µM]	-1%[46.1 µM]	-4.0%	-19%
CCCCOc1ccc(NC(=O)CN2CCN(Cc3ccccc3)CC2)cc1	0%	5%	·	0%	·	·	·	-5%
Cc1ccc(Cn2nnc3c(=O)[nH]c(C4CCN(S(=O)(=O)c5ccccc5F)CC4)nc32)cc1	6%	?	·	12%	7%[46.1 µM]	-10%	·	13%
Cc1ccc(NC(=O)c2ccccc2NC(=O)Cc2ccccc2)cc1	10%	-16%	-1%	-15%	?	-1%	-5.7%	-1%
Cc1ccccc1-n1nnc2c(=O)oc3ccccc3c21	0%	-47%	4%	-21%	3%	2%	0.2%	?
O=C1CN(C(=O)COC(=O)[C@@H]2CC(O)CN2S(=O)(=O)c2ccc(Cl)cc2)c2ccccc2N1 (stereo partly drawn)	-15%	·	·	-4%	9%	10%	·	-16%
COc1cc2c(cc1NC(=O)C(C)Sc1nc3ccccc3n1C)oc1ccccc12 (stereo not drawn)	-3%	3%	25µM*	0%	13%	14%	0.9%	-16%
COc1ccc(C(=O)Nc2ccc(Br)cc2F)cc1S(=O)(=O)N1CCCC1	13%	·	·	-4%	?	?	·	-23%
COc1cc(/C=C2/CCc3ccccc3C2=O)cc(OC)c1OC	1%	-17%	-1%	-26%	11µM*	?	-9.9%	?
O=S1(=O)N[C@@H](CC2=CCCCC2)C2CCCCC2O1 (stereo partly drawn)	25%	-8%	·	0%	·	·	·	40%[activator]
O=C(c1cc(-c2ccco2)nn1-c1cccc(Cl)c1)N1CCCCC1	16%	-13%	3%	29%	0%	0%	-12%	-2%
CNC(=O)c1ccc(Oc2ccc(C(=O)NC)cc2)cc1	-13%	0%	11%	14%	-2%&-2%	7%	2.7%	-5%
O=C(C1CC(=O)N(C2CCCC2)C1)N1CCN(c2ccccc2)CC1 (stereo not drawn)	-9%	16%	·	?	?	25%	·	-14%
CC1CC(C)CN(S(=O)(=O)N2CCCC(C(=O)NCCCN3CCCCC3C)C2)C1 (stereo not drawn)	-8%	?	·	-9%	·	·	·	-7%
CCCCCNCc1ccc(Cl)cc1	6%	3%	·	1%	5%[46.1 µM]	19%[46.1 µM]	·	-6%
CS(=O)(=O)N(CC(=O)Nc1ccc(Br)cc1)c1ccccc1Br	·	·	-5%	·	·	-9%[46.1 µM]	-8.1%	10%
O=C(O)CSc1cc(C(F)(F)F)nc(-c2ccccn2)n1	21%	-1%	-4%	-1%	?	1%	0.1%	20%
O=C(NCc1ccc2c(c1)CCN2C(=O)c1ccccc1)c1cc2ccccc2[nH]1	·	·	?	·	·	-20%[46.1 µM]	4.9%	-21%
CC(C)CC(=O)N/C(N)=N/c1nc2ccccc2s1	?	7%	-1%	-18%	?	?	-11%	-26%
Cc1ccc(S(=O)(=O)N(CC(=O)NCc2ccco2)Cc2ccc(F)cc2)cc1	27%	-5%	1%	0%	-9%&-9%	-24%	-8.0%	-6%
CCOc1ccc(Nc2nc3ccccc3n3cnnc23)cc1	-4%	-20%	·	-1%	·	·	·	0%
CC(C)(C)Cc1nnc(NS(=O)(=O)c2ccc([N+](=O)[O-])cc2)s1	11%	-8%	·	0%	?	-13%	·	15%
CCOC(=O)/C(C#N)=C/c1ccc(-c2ccccc2)o1	·	·	13%	·	·	4%[46.1 µM]	-11%	40%[activator]
CNC(=S)N1CCC(Cc2ccccc2)CC1	5%	-5%	·	3%	19%[46.1 µM]	-1%[46.1 µM]	·	-16%
CCN(Cc1nc2ccccc2c(=O)[nH]1)Cc1nc2ccsc2c(=O)[nH]1	-8%	0%	·	-3%	0%&0%	13%	·	2%
COc1cccc(CNC(=O)c2cccn2-c2nnc(N3CCCC3)s2)c1	·	·	-12%	·	·	-8%[46.1 µM]	1.0%	1%
CC(=O)N1c2ccc(S(=O)(=O)N3CCCC3)cc2CC1C(=O)NCc1ccc(N(C)C)cc1 (stereo not drawn)	-8%	-3%	·	3%	·	·	·	-9%
CCCNC(=O)/C=C/c1ccc(C(C)C)cc1	3%	-5%	3%	-22%	?	18µM*	-0.5%	48%[activator]
Nc1nc(NCc2ccco2)nc(NC2CCCCC2)c1[N+](=O)[O-]	10%	-1%	·	-1%	-18%[14.2 µM]	4%	·	-14%
CC(C)NCC(O)c1ccc2ccccc2c1 (stereo not drawn)	-2%	·	-12%	·	·	·	6.3%	0%&-3%
c1ccc(-c2n[nH]c(-c3ccccn3)n2)nc1	-6%&2%	-22%&-3%	2%	2%&1%	?	?	-0.4%	0%&2%
CN(C)c1ccc(/C=C/C(=O)c2cc(Cl)ccc2O)cc1	1%	-1%	·	-2%	·	·	·	34%[activator]
CC(C)CN1CCN(Cc2cccc3c2OCO3)CC1CCO (stereo not drawn)	12%	0%	·	0%	12%[46.1 µM]	-2%	·	-10%
CCCOC(=O)c1cc2ccccc2oc1=O	-21%	-60%	-5%	-13%	2%	16%	-3.2%	·
COC(=O)c1ccc(NC(=O)c2c(NCc3ccc(C)o3)sc3c2CCCC3)cc1	·	·	-8%	·	·	?	-16%	12%
CCOc1ccc(OCC)c(NC(=O)c2c(C)nn(-c3ccccc3)c2-n2cccc2)c1	·	·	?	·	1%[46.1 µM]	23%[46.1 µM]	-4.8%	2%

Exported with two lines to a compound: part of the list above.
The line under a structure holds: RE007 growth inh | NS1 inh | Cruzain inh noDet | SARS PLP yeast | Marburg entry inh | LASV entry inh | Cruzain inh Det | StopGo reporter
> CC(C)NCC(O)c1ccc2ccccc2c1 (stereo not drawn)
  -2% | · | -12% | · | · | · | 6.3% | 0%&-3%
> c1ccc(-c2n[nH]c(-c3ccccn3)n2)nc1
  -6%&2% | -22%&-3% | 2% | 2%&1% | ? | ? | -0.4% | 0%&2%
> CN(C)c1ccc(/C=C/C(=O)c2cc(Cl)ccc2O)cc1
  1% | -1% | · | -2% | · | · | · | 34%[activator]
> CC(C)CN1CCN(Cc2cccc3c2OCO3)CC1CCO (stereo not drawn)
  12% | 0% | · | 0% | 12%[46.1 µM] | -2% | · | -10%
